Screens as filed in PubChem BioAssay.
HIV TAR-Tat: HIV-1 TAR-Tat binding disruption; HIV-1 TAR RNA, Tat peptide displacement FRET; stronger effect = higher value; z-score (no concentration beside the values); 100,000 tested, 0.6% active;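 note: score is relative to mean and SD of negative controls; some compounds called inactive have numbers as strong as hits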
CDC25B CDK2 inh: human CDC25B-CDK2/CyclinA binding inhibition; AID 1259370; P30305+P24941; HTRF CDC25B-CDK2/CyclinA binding, anti-His/anti-Flag; stronger effect = higher value; 94,000 tested, 0.72% active; z-score (concentration not given with the values);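 note: score is relative to mean and SD of negative controls; strong numbers were not always called active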
An asterisk follows results filed as active; · = not tested or not shown.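 Rule for the calls: active = z-score from 3 up in half or more of its runs; inactive = the rest.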 This is a random part of the collection, and some 0.89% of all compounds hit somewhere here.

Every second line gives: HIV TAR-Tat | CDC25B CDK2 inh
COc1ccc(OC)c(NC(=O)C(C)n2sc3ccccc3c2=O)c1 (stereo unspecified)
    1.6 | -1.8
Cc1cc(Br)cc2c1N(Cc1ccc(OC(C)C)cc1)C(=O)C2=O
    2.1 | 1.6
CCCCNC(=O)c1sc(-n2nc(C)c(CCCC)c2C)nc1C
    0.02 | 0.16
Cc1ccc(-n2nc(C)c3c(C)c(CCC(=O)O)c(=O)[nH]c32)cc1
    1.7 | -2.4
CCN(CC)CCCNc1ncnc2c1cnn2-c1ccc(C)cc1
    0.99 | ·
CCOC(=O)CNC(=O)N1CCC(CN2CCC(C)CC2)CC1
    2.5 | ·
Cc1ccc(-n2ncc3c(NCC(C)O)ncnc32)cc1C (stereo unspecified)
    0.92 | ·
O=C(Nc1ccc(F)cc1F)N1CCC(n2c(=O)[nH]c3ccccc32)CC1
    0.39 | -0.73
Cc1ccc(C(=O)N2CCCC(C)C2)cc1NC1=NC2CS(=O)(=O)CC2S1 (stereo unspecified)
    -0.3 | -1.6
Cc1ccc(Nc2c(-c3ccccc3O)nc3ncccn23)c(C)c1
    0.78 | 0.01
CCN(CC)CC(=O)NN1CC(=O)N(c2cccc(Cl)c2)CC1=O
    · | -1.5
Cn1c(=O)n(C)c2cc(N3CCOCC3)c(NS(C)(=O)=O)cc21
    1.5 | 0.29
CN1CCN(S(=O)(=O)c2ccc(-c3cc(C(F)(F)F)on3)s2)CC1
    0.95 | -1.6
Cc1cc(C)nc(SCC(=O)Nc2c(C)n[nH]c2C)n1
    2.7 | 0.05
Cc1cccc(NC(=O)c2c(O)c3ccccc3n(C)c2=O)n1
    -1.3 | -1.6
c1nc(Nc2ccc3c(c2)OCO3)c2c3c(sc2n1)CCCC3
    · | 0.08
COc1ccc2c(c1)cc1n2CCN=C1NCCO
    2.2 | -1.2
Cc1ccc(Cl)cc1NS(=O)(=O)c1ccc(-c2ccc(=O)[nH]n2)s1
    0.63 | ·
C1CCCCCC2(CCCCC1)OCC(CN1CCOCC1)O2 (stereo unspecified)
    · | -2.4
CCC1CCCCN1C(=O)c1cc2c(=O)n3ccccc3nc2s1 (stereo unspecified)
    · | -0.7
COc1ccc(-c2nc3c(c(=O)[nH]2)Cc2cc(Cl)ccc2O3)cc1
    1.6 | -0.79
c1ccc(C(NCCNC(c2ccccc2)c2ccccc2)c2ccccc2)cc1
    · | -0.26
Cn1nc(C(=O)Nc2ccccc2C(N)=O)c2c1-c1ccccc1SC2
    0.39 | 0.08
CCn1nc(C)c(CNC(=O)Nc2cccc(SC)c2)c1C
    0.29 | ·
CCC(C(=O)Nc1cc(F)ccc1F)n1c(C)c2cnn(-c3ccccc3)c(=O)c2c1C (stereo unspecified)
    2.1 | -0.12
COc1cn(CC(=O)Nc2ccc(Br)cc2)c(CSc2ccccc2)cc1=O
    0.92 | ·
CCC(C)NC(=O)Cn1c2ccccc2c2cn[nH]c(=O)c21 (stereo unspecified)
    · | -5.4
CCCN(CCC)C(=O)Cn1cnc2c1c(=O)n(C)c(=O)n2C
    1.4 | -0.59
CSc1cccc(NC(=S)Nc2cccc(SC)c2)c1
    · | -1.1
CN(C(=O)c1ccc2c(Cl)c3c(nc2c1)CCC3)c1ccccc1
    · | -0.82
Cc1ccc(CNC(=O)Cn2c(=O)c3cccn3c3ccc(F)cc32)o1
    1.3 | ·
O=[N+]([O-])c1cc(C2SCCS2)ccc1Sc1ccc(Cl)cc1
    · | 1.5
O=C(COCc1cc(-c2ccc3c(c2)OCO3)on1)Nc1cc(-c2cccc(F)c2)no1
    1.6 | ·
CN1C(=O)C(CC(=O)Nc2ccc(F)cc2)N(Cc2ccc3c(c2)OCO3)C1=S (stereo unspecified)
    · | 1.3
O=C(C1CCC(CNc2c(N3CCCCC3)c(=O)c2=O)CC1)N1CCN(C2CCCCC2)CC1 (stereo unspecified)
    · | -0.88
O=C(NCCCN1CCOCC1)C(=O)c1c[nH]c2ccccc12
    · | -1.1
Clc1cccc(-c2nc(-c3cccnc3)no2)c1
    -2.1 | 0.18
CC1Cn2cc(C(=O)NCc3ccc4c(c3)OCO4)c(=O)c3c(Cl)ccc(c32)O1 (stereo unspecified)
    0.61 | ·
Cc1ccc(CNC(=O)C(C)SC2=Nc3ccccc3C3=NC(C)C(=O)N23)cc1 (stereo unspecified)
    0.66 | ·
CN(C(=O)C1CCCN(c2ncnc3c2nc2n3CCCCC2)C1)c1ccccc1F (stereo unspecified)
    0.56 | ·
O=C1C2CCCN2C(c2ccccc2Cl)N1c1nccs1 (stereo unspecified)
    · | 0.81
CCC(C)OC(=O)C(C)Oc1ccc2c(=O)c(-c3ccccc3)coc2c1 (stereo unspecified)
    0.04 | -0.47
CCc1cccc(NS(=O)(=O)c2ccc(-c3cc(C)[nH]n3)s2)c1
    -1.2 | ·
CN(C)c1ccc(NC(=O)Cn2ncn3c(cc4ccccc43)c2=O)cc1
    1.9 | -1.8
Cc1cc(-c2csc3ncn(Cc4ccc(Cl)cc4)c(=O)c23)ccc1F
    -0.29 | 0.94
Cn1c(=O)c2ccccc2n2c(CCC(=O)N3CCc4ccccc4C3)nnc12
    0.71 | -0.45
NS(=O)(=O)c1cccc(NC(=O)c2cnc3ccccc3n2)c1
    · | -0.36
COc1cc(Cl)c(NS(=O)(=O)c2ccc3c(c2)CC(C)N3C(C)=O)c(OC)c1 (stereo unspecified)
    2.1 | ·
Cc1nc(C)c(-c2csc(Nc3ccc(C(=O)O)cc3)n2)s1
    0.84 | 0.01
Cc1c2c(=O)n(-c3ccccc3)[nH]c2cc(=O)n1Cc1ccc2c(c1)OCO2
    1.2 | -1.4
CCOc1ccc2ncc(S(=O)(=O)c3ccc(OC)cc3)c(N(CC)CC)c2c1
    0.46 | -1.4
COc1ccc(S(=O)(=O)Nc2cccc(-c3nnc(Cc4ccc5c(c4)OCO5)o3)c2)cc1
    25 | ·
CCC1CN(S(=O)(=O)c2ccc3c(c2)NC(=O)CC(=O)N3)c2cc(Cl)ccc2O1 (stereo unspecified)
    1.2 | ·
CCN(c1ccc(OC)cc1)S(=O)(=O)c1ccc(-c2cc(C)no2)s1
    -0.94 | ·
Cn1c(Cn2c(=O)sc3ccccc32)nnc1SCC(=O)Nc1ccc2c(c1)OCCO2
    · | -0.42
C=CCn1c(CCNC(=O)C(C)C)nc2ccccc21
    0.46 | -0.64
CCCCc1nn2c(=O)cc(CSc3ncn[nH]3)nc2s1
    -0.27 | ·
CS(=O)(=O)Nc1nc2ccc(NC(=O)CCC3CCCC3)cc2s1
    0.31 | ·
Cc1ccccc1-c1noc(-c2nnn(-c3cccc(Cl)c3)c2N)n1
    0.68 | ·
CCc1ccc2[nH]c(C)c(CN3CCN(Cc4ccccc4)CC3)c(=O)c2c1
    · | -0.05

Continuation:
Every second line gives: HIV TAR-Tat | CDC25B CDK2 inh
Cc1sc2c(c1C)CSC(C(=O)NC1CCCC1)=C2
    -2.1 | ·
Cc1nn2cnnc2c(C)c1CCC(=O)N1CCC(Cn2c(C)ccc2C)CC1
    -4.8 | ·
CC1CCc2c(cnc3c(C(=O)NCc4ccc5c(c4)OCO5)cnn23)C1 (stereo unspecified)
    -1.7 | ·
O=C(CN1C(=O)COc2ccc(S(=O)(=O)N3CCOCC3)cc21)NCCC1=CCCCC1
    -0.37 | 1.5
CCOC(=O)C1=NOC2C(=O)N(c3ccc(F)cc3)C(=O)C12 (stereo unspecified)
    0.64 | -0.25
CCOc1ccc(-n2c(C)nc3c(cnn3-c3ccc(F)cc3)c2=O)cc1
    · | -1.8
CCc1nn(CCCC(=O)N2CCN(c3ccccc3)CC2)c(=O)c2cc3oc(C)cc3n12
    -0.1 | 0.02
Cc1c(C(=O)N2CCCCC2)c(S(=O)(=O)N2CCc3ccccc32)c(C)n1C
    -0.18 | ·
O=C(COc1ccccc1F)NCc1n[nH]c(=O)c2ccccc12
    0.61 | ·
O=C(Cn1nc(-c2ccco2)ccc1=O)NC1CCCCC1
    1.1 | -0.62
Cc1nc2ccc(S(=O)(=O)NC(C(=O)NC3CCCC(C)C3C)C(C)C)cc2s1 (stereo unspecified)
    -0.85 | -2.2
COc1ccc(-c2c(Br)sc(SC)c2C#N)cc1
    · | -1.4
Cc1cccc(N2CCN(S(=O)(=O)c3c(C)noc3C)CC2)c1C
    0.9 | -1.9
C=CCn1c(C(C)Oc2ccc(Cl)cc2)n[nH]c1=S (stereo unspecified)
    · | -0.4
CCOC(=O)N1CCC(NC(=O)Nc2cn(C)c(=O)c3ccccc23)CC1
    0.65 | ·
FC(F)(F)c1cc(-c2cccnc2)nc2c(-c3ccc(Cl)cc3)cnn12
    0.05 | -2.3
CCc1nc2n(n1)C1(CCCCC1)[C@@H]1CCCC[C@@H]1N2C(C)=O
    1.4 | -1.5
Cc1ccc2c(c1)NC(c1ccccc1)C1=C(CC(C)(C)CC1=O)N2 (stereo unspecified)
    0.38 | -1.2
Cc1ccc(S(=O)(=O)c2ccc(Cl)nn2)cc1
    2 | -2.8
CC(=O)N1c2ccc(S(=O)(=O)N3CCCC3)cc2CC1C(=O)NCCc1ccco1 (stereo unspecified)
    1.1 | ·
Cc1ccc(/C=C2/SC(=S)N(CCCC(=O)Nc3c(C)cc(C)cc3C)C2=O)cc1
    · | -2.1
FC(F)(F)c1nnc2sc(-c3cccnc3)nn12
    0.78 | -1.7
COc1cccc(-c2nc3c(c(=O)[nH]2)Cc2ccccc2O3)c1O
    1.9 | -0.88
CC(OCc1ccccc1)C(NC(=O)OC(C)(C)C)C(N)=O (stereo unspecified)
    · | -1.4
O=C(NCCNS(=O)(=O)c1ccc(C(F)(F)F)cc1)N1CCOCC1
    · | -1.3
COCCCNc1nc(NCc2ccccc2OC)c2cnn(C)c2n1
    0.93 | ·
Nc1nc(NCc2ccco2)nc(Nc2cccc(F)c2)c1[N+](=O)[O-]
    1.5 | ·
CN(C)C(=S)NC(Cc1ccccc1)c1ccccc1 (stereo unspecified)
    · | -0.97
COc1ccc(Nc2c(-c3ccco3)nc3ccc(C)cn23)cc1
    · | -2.2
O=S(=O)(c1ccc(-c2cc(C(F)(F)F)on2)s1)N1CCC(N2CCCCC2)CC1
    2 | ·

Entries of single compounds as entered above. Order of screens: HIV TAR-Tat	CDC25B CDK2 inh
Profile of FC(F)(F)c1cc(-c2cccnc2)nc2c(-c3ccc(Cl)cc3)cnn12 : 0.05	-2.3
Profile of c1ccc(C(NCCNC(c2ccccc2)c2ccccc2)c2ccccc2)cc1 : ·	-0.26
Profile of O=C(Nc1ccc(F)cc1F)N1CCC(n2c(=O)[nH]c3ccccc32)CC1 : 0.39	-0.73
Profile of COc1ccc2c(c1)cc1n2CCN=C1NCCO : 2.2	-1.2
Profile of Cn1c(=O)n(C)c2cc(N3CCOCC3)c(NS(C)(=O)=O)cc21 : 1.5	0.29

Further records
Every second line gives: HIV TAR-Tat | CDC25B CDK2 inh
CCOC(=O)c1[nH]c(C)c(C(=O)N2CCOCC2)c1C
    -0.37 | -2.8
Cc1ccc(C)n1-c1ccccc1C1C=NNC1=O (stereo unspecified)
    · | -3.3
Clc1ccc(Cc2nnc3sc(-c4ccc5c(c4)OCCO5)nn23)cc1
    0.31 | -1.4
CCOc1c(Nc2ccccc2F)c(=O)c1=O
    -0.11 | ·
Clc1ccc(Cc2nn3c(C4COc5ccccc5O4)nnc3s2)cc1 (stereo unspecified)
    1.1 | 2.6
O=C(O)CC(CC(=O)Oc1ccccc1N1CCCCC1)c1ccccc1 (stereo unspecified)
    · | -2.7
CCn1cc(S(=O)(=O)c2ccccc2)c(=O)c2cc(F)c(N3CCN(C)CC3)cc21
    0.5 | ·
O=C(CSc1nc2ccccc2s1)NCCCN1CCOCC1
    0.14 | -0.27
COc1ccc(CCNC(=O)c2ccccc2-c2ccccc2C(=O)O)cc1OC
    · | -0.73
CCN(CC)CCCn1c(C)c(C)c2c1ncn1nc(-c3ccc(Cl)cc3)nc21
    0.91 | -0.97
CCc1nc(-c2csc(S(=O)(=O)Nc3ccc(F)c(Cl)c3)c2)no1
    0.57 | ·
Cn1c(=O)[nH]c(=O)c2c1nc(N1CCOCC1)n2CCSc1nc2ccccc2s1
    · | -0.24
CC(C)C(=O)OCc1cc(=O)n2nc(C3CC3)sc2n1
    -0.4 | ·
Cc1cc(C(F)(F)F)n2nc(-c3cccs3)cc2n1
    · | -1.2
Cc1c(C(=O)Nc2nc3ccc(Br)cc3s2)sc2nc[nH]c(=O)c12
    1.5 | ·
Cc1ccc(C)c(Nc2nn3c(=O)c4ccc(C(=O)NCC5CCCO5)cc4nc3s2)c1 (stereo unspecified)
    0.05 | ·
Cc1nn(-c2ccc(Br)cc2)cc1-c1noc(C(=O)NCc2cccs2)n1
    1.6 | ·
O=C(Cn1cc(C(=O)c2ccco2)c2ccccc21)NCC1CCCO1 (stereo unspecified)
    0.48 | -3.7
Cn1cccc1Cc1nnc(SCC(=O)Nc2nccs2)n1C
    2.2 | -1.2
Fc1cccc(Nc2nc3ccc(Cl)cc3n3cnnc23)c1
    -0.98 | 0.08
CCn1c(=O)n(CC)c2cc(Nc3nc4ccccc4c4nncn34)c(Br)cc21
    2.8 | -0.14
N#CC1=C2SCN(c3ccc(Br)cc3)CN2C(=O)CC1c1cccs1 (stereo unspecified)
    2.7 | 0.05
